# Bioassay records (PubChem)
# AF4-AF9 inh: inhibitors of human MLL-AF4/AF9 interaction; P42568; AlphaScreen, biotin-AF4 peptide binding to FLAG-AF9; inhibition, % at 10 µM; 0.47% of 350,000 active;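 active = every replicate reaching a set inhibition limit, whatever the replicate mean, cut at about 25% in these data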;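 note: 0% = plate neutral control median and 100% = total signal loss; the record names both 10 and 1 µM as test concentration; the first replicate is given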
# Target sequence (P42568 whole entry, looked up): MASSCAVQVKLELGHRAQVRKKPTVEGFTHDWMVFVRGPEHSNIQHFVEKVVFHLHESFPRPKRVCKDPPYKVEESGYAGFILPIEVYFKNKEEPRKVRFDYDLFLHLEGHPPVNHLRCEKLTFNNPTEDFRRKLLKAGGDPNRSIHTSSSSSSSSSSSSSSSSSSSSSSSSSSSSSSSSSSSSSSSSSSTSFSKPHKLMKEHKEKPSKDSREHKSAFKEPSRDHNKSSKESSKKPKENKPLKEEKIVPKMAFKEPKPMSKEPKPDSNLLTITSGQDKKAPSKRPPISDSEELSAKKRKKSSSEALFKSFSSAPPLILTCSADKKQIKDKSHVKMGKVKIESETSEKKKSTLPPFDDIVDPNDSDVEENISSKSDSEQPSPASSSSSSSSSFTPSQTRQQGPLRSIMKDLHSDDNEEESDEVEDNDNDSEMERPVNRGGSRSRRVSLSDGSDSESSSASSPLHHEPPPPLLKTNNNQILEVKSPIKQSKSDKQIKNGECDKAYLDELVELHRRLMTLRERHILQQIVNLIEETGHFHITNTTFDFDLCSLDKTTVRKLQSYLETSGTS
# FGF22 binding: binders of recombinant human FGF22 by thermal shift; Q9HCT0; SYPRO orange fluorescence; percent of sucrose octasulfate shift, DMSO zero; calls only at 9.99 µM; 1.5% of 340,000 active; AID 651658;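 active = melting point raised past a set limit in the mean and every replicate; three in four hits are not shown here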
# Target sequence (Q9HCT0 whole entry, looked up): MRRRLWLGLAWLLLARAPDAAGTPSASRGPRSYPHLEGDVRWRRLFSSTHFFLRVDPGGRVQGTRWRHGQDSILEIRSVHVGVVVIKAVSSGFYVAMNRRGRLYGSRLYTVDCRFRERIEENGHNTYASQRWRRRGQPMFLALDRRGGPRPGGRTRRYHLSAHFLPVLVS
# A1 inh: inhibitors of the anti-apoptotic protein A1, read as caspase activation | MEF A1-2A-BIM cells, Caspase-Glo 3/7 luminescence, 3 h; percent of clofoctol response, vehicle zero | caspase activation, % (test concentration not listed) | 0.066% of 330,000 active;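 active = over half of replicate activation scores above 10%, or exactly half above 10 with the replicate mean above 10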;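 note: wells of about 30 µL received 50 nL stock; many hits fall short of the cut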
# rRNA inh HTS: inhibitors of bacterial rRNA selective over humanized ribosomes | E. coli WT GFP vs humanized-ribosome RFP mutants, fluorescence, 24 h; active compounds read low; DMSO median 0, no signal -100 | AID 720706 | GFP signal change (wild-type ribosome), % (no concentration beside the values) | 1.6% of 350,000 active;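 active = significant combined selectivity score with lowered wild-type GFP, culture density cut under 30%, mutant RFP and density less affected; inactive = any of these conditions unmet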; note: one replicate is shown; some compounds called inactive have numbers as strong as hits
# Beta cell apopt: blocks beta cell apoptosis | 0.8% of 300,000 active | INS-1E cytokine-induced death, ATP luminescence, 48 h; percent of positive-control rescue, neutral wells zero | AID 435005 | protection from apoptosis, % (no concentration beside the values);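 active = all replicates at 75% or more, or half of them and the mean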;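 note: 0% = cytokine-treated negative control wells and 100% = positive control rescue; higher means more ATP so stronger rescue from cytokine killing; wells of about 40 µL received 100 nL stock; the first replicate is given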
# T cruzi repl: T. cruzi replication inhibition; inhibition, % (no concentration beside the values); 1.4% of 300,000 active; AID 1885; T. cruzi beta-gal in NIH3T3, luminescence, 90 h;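 active = mean inhibition across valid replicates above about 55%, limit read from the data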;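 note: signal also drops with host cell toxicity which is not excluded here; 0% = plate median of DMSO wells and 100% = zero luminescence signal; higher percent means less beta-gal luminescence so fewer parasites; stock transfer was 50 nL into about 50 µL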
# Ecoli growth: blocks Escherichia coli growth. OD600, 23 h; active compounds read low. OD600 absorbance (no concentration beside the values). 0.21% of 330,000 active. AID 1053175;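 active = OD600 absorbance below the run mean of sample wells minus 3.6 SD, in any replicate, cut at about 0.56 in these data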;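 note: stock transfer was 300 nL into about 60 µL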
# UCH37 inh: inhibitors of human deubiquitinating enzyme UCH37; Q9Y5K5; purified proteasome/UCH37, Ub-AMC cleavage fluorescence; inhibition, % (no concentration beside the values); 0.33% of 330,000 active; AID 588478;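 active = mean of two replicates above 20%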;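 note: 0% = compound-free wells with enzyme and 100% = wells lacking proteasome; stock transfer was 100 nL into about 20 µL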
# Target sequence (Q9Y5K5 whole entry, looked up): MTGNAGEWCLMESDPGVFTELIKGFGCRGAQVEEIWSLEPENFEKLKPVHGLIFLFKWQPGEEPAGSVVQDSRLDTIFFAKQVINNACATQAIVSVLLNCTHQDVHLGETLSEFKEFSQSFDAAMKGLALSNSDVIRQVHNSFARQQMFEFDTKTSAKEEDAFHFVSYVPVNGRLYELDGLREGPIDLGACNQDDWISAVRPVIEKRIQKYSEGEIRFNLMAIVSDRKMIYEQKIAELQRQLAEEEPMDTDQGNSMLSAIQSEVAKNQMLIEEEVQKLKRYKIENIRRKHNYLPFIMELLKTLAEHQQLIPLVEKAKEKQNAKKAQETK
#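 Test system – human UCH37 enzyme supplied as purified proteasome complex · Incubation – 30 min preincubation with enzyme, 25 min cleavage at room temperature · Detection – AMC fluorescence from Ub-AMC cleavage, excitation 355 nm, emission 460 nm · Benchmarks – no-proteasome wells (full inhibition) and compound-free wells (no inhibition)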
# rRNA inh HTS OD600: further read-out of rRNA inh HTS, marked with its call; OD600 change, %; measured here: OD600 growth;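 optical density of the mix in the first replicate; 0 = DMSO median and -100 = no signal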
# rRNA inh HTS RFP: also measured in rRNA inh HTS; calls as there; RFP signal change, %; measured here: RFP humanized mutant strains;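 first replicate; 0 = DMSO median and -100 = no signal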
# The depositor's hits bear a star; i = inactive; . = no result given; & = joins results of further samples.
SMILES,AF4-AF9 inh,FGF22 binding,A1 inh,rRNA inh HTS,rRNA inh HTS OD600,rRNA inh HTS RFP,Beta cell apopt,T cruzi repl,Ecoli growth,UCH37 inh
Cc1ccc(C)c(Nc2c([N+](=O)[O-])ccc3nonc23)c1,-0.4,i,0.9,6,14,-0.3,-1,10,0.69,2.5
COc1ccc(OC)c(N(CC(=O)NCCSCc2ccco2)S(=O)(=O)c2ccc(OC)c(OC)c2)c1,-2.9,i,-0.2,9,18,-0.7,-7,2,0.63,-0.7
CC(=O)CC1(C)OC(N)=C(C#N)C1(C#N)C#N (centres undefined),.,.,-0.2,.,.,.,-12,3,0.79,-12
COC(=O)CSc1nnc(-c2cccc(NC(=O)c3ccc(C)cc3)c2)n1C,.,.,-0.1,.,.,.,-7,-6,0.78,0.1
Cc1cc(C)nc(-n2cc(C(=O)c3cc(F)ccc3O)cn2)n1,4.1,i,0.4,8,15,2.6,5,-8,0.6,0.7
Cc1ccc(C)c(SCC(=O)Nc2cccnc2Cl)c1,-2.8,i,0.3,-8,-17,-1.7,0,-7,0.65,-0.1
CCNC(=O)c1ccc2c(c1)C1C3CCC(C3)C1C(c1ccccc1)N2 (centres undefined),8.5,i,0.4,-14,-25,-3.8,.,22,0.74,5.5
CC(C)=CCC/C(C)=C/CC/C(C)=C/COc1ccc2ccc(=O)oc2c1,-5.1,i,-1.3,2,-4,2.7,-1,.,.,-40
CSCCC(NC(=O)C1CC1)c1nc2ccccc2[nH]1 (centres undefined),.,.,0.2,.,.,.,6,-5,0.71,5.6
O=C(Nc1c2c(nn1-c1cccc(Cl)c1)CS(=O)(=O)C2)C1CC1,-3.6,i,1.5,6,7,2.4,.,8,0.75,2.2
CN(C)CCCOc1ccc2c(c1)Sc1ccccc1CC2=O,.,.,2.5,.,.,.,4,33,0.6,-1.5
CCOC(=O)C1CCc2sc(N)c(C#N)c21 (centres undefined),-54,i,-0.8,1,0,9.1,2,-17,0.69,1.8
COc1ccccc1NC(=O)COc1ccc(C(=O)NC2CCCc3ccccc32)cc1OC (centres undefined),-1.3,i,0.0,8,12,-3.3,-2,2,0.73,3.4
N=C1C(c2nc3ccccc3[nH]2)=C(O)CN1C1CCCCC1,8.8,i,0.5,-6,-2,-0.4,-6,-1,0.66,2.7
O=C(CCCOc1ccc(Cl)cc1Cl)Nc1ccccc1C(=O)O,-34,i,-1.0,-30*,-13*,-3.0*,2,0,0.68,4.6
O=C(NCc1ccc(Cl)cc1Cl)c1ccc2nc[nH]c2c1,.,.,-0.3,.,.,.,-5,-22,0.63,3.3
CN(C)CC(=O)Nc1nc(-c2ccccc2)cs1,.,.,0.3,.,.,.,.,-1,0.79,-1.1
COC(=O)CN1C(=O)C(O)(CC(=O)c2ccc(C)cc2)c2ccccc21 (centres undefined),.,.,-0.5,.,.,.,-5,-5,0.71,-0.6
Cc1cccc(C)c1NC(=O)CN1CCN(C(=O)c2ccc(OCc3cn4ccccc4n3)cc2)CC1,-4.2,i,1.1,2,-6,-12,-7,.,0.64,1.4
CN1C(C(=O)c2ccccc2)=C(N)c2ccccc2S1(=O)=O,0.6,.,0.6,-23*,-16*,-1.6*,-7,0,0.65,4.8
CC1(C)CC(=NOC(=O)c2ccccc2)CC(C)(C)N1,-15,i,1.3,20,12,3.6,4,-11,0.7,2.9
O=C(N1CCOCC1)N1CCN(S(=O)(=O)c2ccc(Cl)cc2)CC1,1.9,i,0.5,6,2,-0.3,.,-1,0.68,0.8
Cc1nn(Cc2ccccc2Cl)c2sc(C(=O)OC3CCCC3=O)cc12 (centres undefined),.,.,1.2,.,.,.,-5,10,0.73,3.6
CCOc1ccc(NC(=O)COC(=O)CCC(=O)c2cccs2)cc1,0.9,i,.,7,5,2.0,.,.,0.66,-0.8
CCOc1ccc(-n2c(N)c(C(=O)NCc3ccco3)c3nc4ccccc4nc32)cc1,.,.,-1.0,.,.,.,-9,-4,0.7,-164
CCOc1cc(/C=C/c2ccc3cccc([N+](=O)[O-])c3n2)ccc1OCC(=O)N(C)C,12,i,-0.3,-4,-3,3.5,-5,-1,0.73,12
Cc1ccc(C(C(=O)NC2CCCCC2)N(Cc2ccco2)C(=O)C2COc3ccccc3O2)o1 (centres undefined),.,.,-0.4,.,.,.,3,19,0.74,3.1
O=C(Cn1nc(Cc2cccnc2)c2ccccc2c1=O)NCC1COc2ccccc2O1 (centres undefined),-0.4,.,-0.3,-16,-17,0.8,-1,13,0.71,6.1
O=C(CCCCCN1C(=O)c2ccccc2C1=O)Nc1nccs1,.,.,1.1,.,.,.,-1,-3,0.74,6.8
COc1ccccc1N1CCN(C(CNS(=O)(=O)c2ccccc2)c2cccnc2)CC1 (centres undefined),.,.,-1.5,.,.,.,-3,28,0.74,0.2
O=C(O)c1[nH]c2ccccc2c1C(c1cc(Br)ccc1O)c1c(C(=O)O)[nH]c2ccccc12,0.7,.,-0.8,3,2,-1.5,3,1,0.7,4.0
OCC1(CCc2ccccc2)CCN(Cc2cc(F)ccc2-n2cccn2)CC1,5.6,i,0.7,5,0,-5.4,-2,17,0.7,6.0
CC(C)(C)Cc1nnc(NC(=O)c2ccc([N+](=O)[O-])cc2)s1,-1.7,i,-1.7,1,-12,-7.5,8,-2,.,.
Cc1ccc(CNC(=O)CCC(=O)n2ncc3cc(C)ccc32)cc1,-8.5,i,-0.4,11,8,-1.4,2,-1,0.8,2.3
Clc1ccc(OCCCN2CCc3ccccc3C2)c(Br)c1,-3.1,i,0.1,-40,-75,-4.5,-4,32,0.57,1.9
CCSc1nnc(NC(=O)c2cc3c(s2)CCCC3)s1,.,.,-2.0,.,.,.,-2,-19,0.69,-15
O=C(Nc1cc(Oc2ccccc2)cc([N+](=O)[O-])c1)C12CC3CC(C1)CC(n1cnc(Cl)n1)(C3)C2,.,.,-1.0,.,.,.,.,62*,0.72,2.3
COCCNC(=O)CN1C(=O)CSc2ccc(S(=O)(=O)N3CCOCC3)cc21,2.2,i,-0.7,7,-3,-3.2,-3,-17,0.69,2.7
Cc1c(C(=O)NC2CCCc3ccccc32)oc2ccc(S(=O)(=O)N3CCOCC3)cc12 (centres undefined),.,.,0.8,.,.,.,10,12,0.72,4.9
CCNc1ccc(C(=O)OCC(=O)c2cc(C)n(Cc3ccc4c(c3)OCO4)c2C)cc1[N+](=O)[O-],-4.0,i,0.4,.,.,.,7,14,0.7,4.4
Cc1ccc(CSCc2ccc(C(=O)NC3CC3)o2)cc1,0.9,i,0.1,-20,-19,-1.6,4,10,0.72,2.6
COC(=O)[C@H](Cc1ccccc1)NC(=O)NCc1ccccc1OC,.,.,1.0,.,.,.,-9,-8,0.68,-1.7
CCN(CC)C(=O)c1ccc(-c2ccccc2)cc1,.,.,-3.3,.,.,.,0,-9,0.69,3.2
O=C(CSc1ccc([N+](=O)[O-])cn1)Nc1nccs1,1.2,i,0.1,10,14,0.2,2,4,0.71,2.3
Cc1ccc(-n2ncc3c(SCc4cccc(C)c4)ncnc32)cc1,.,.,-0.5,.,.,.,0,-10,0.68,-19

# Filtered by structure: the entries above containing two or more sulfur atoms
SMILES,AF4-AF9 inh,FGF22 binding,A1 inh,rRNA inh HTS,rRNA inh HTS OD600,rRNA inh HTS RFP,Beta cell apopt,T cruzi repl,Ecoli growth,UCH37 inh
COc1ccc(OC)c(N(CC(=O)NCCSCc2ccco2)S(=O)(=O)c2ccc(OC)c(OC)c2)c1,-2.9,i,-0.2,9,18,-0.7,-7,2,0.63,-0.7
CCSc1nnc(NC(=O)c2cc3c(s2)CCCC3)s1,.,.,-2.0,.,.,.,-2,-19,0.69,-15
COCCNC(=O)CN1C(=O)CSc2ccc(S(=O)(=O)N3CCOCC3)cc21,2.2,i,-0.7,7,-3,-3.2,-3,-17,0.69,2.7
O=C(CSc1ccc([N+](=O)[O-])cn1)Nc1nccs1,1.2,i,0.1,10,14,0.2,2,4,0.71,2.3

# (continued)
SMILES,AF4-AF9 inh,FGF22 binding,A1 inh,rRNA inh HTS,rRNA inh HTS OD600,rRNA inh HTS RFP,Beta cell apopt,T cruzi repl,Ecoli growth,UCH37 inh
CS(=O)(=O)c1ccc(C(=O)NC2CCOC2=O)cc1 (centres undefined),.,.,1.0,.,.,.,-2,4,0.73,-0.6
O=C(CCN1C(=O)[C@@H]2Cc3ccccc3CN2C1=O)Nc1cccc(F)c1,-18,i,-0.2,-2,5,-3.3,-4,-2,0.64,1.0
CC(C)N(Cc1ccccc1)C(=S)Nc1ccccc1F,-0.2,i,-0.3,.,.,.,3,5,0.68,3.6
CNC[C@@H]1Oc2c(NC(=O)Nc3ccccc3)cccc2C(=O)N([C@@H](C)CO)C[C@H]1C,-1.0&-15,i,-0.1,-1&8,4&9,0.3&1.2,-6,.,.,1.4
Cc1ccc(-n2c(Cc3cccn3C)nnc2SCC(=O)Nc2cc(C)on2)cc1,.,.,0.0,.,.,.,0,-8,0.72,4.2
O=S(=O)(c1ccccc1)c1nc(NCc2cccnc2)sc1Cl,-1.0,i,1.3,-19,-29,-3.7,-3,-3,0.71,4.9
CN(C)c1cc[n+](CC(=O)Nc2ccc(OC(F)F)cc2)cc1,-2.8,i,-0.4,16,10,0.6,6,-4,0.69,1.1
COc1ccc(OC)c(NC(=S)NCCCN2CCOCC2)c1,.,.,0.1,.,.,.,1,-16,0.7,-1.1
O=C(OCC(=O)N1CCOCC1)c1ccccc1Br,-1.4,i,-1.3,9,12,-1.4,-2,-3,0.68,5.0
O=C(COc1cccc2cccnc12)N/N=C1\SCC(=O)N1Cc1ccccc1,.,.,1.6,-27,-54,9.3,-3,-18,.,.
Cc1c(-n2c(-c3ccccc3)nc3ccccc3c2=O)c(=O)n(-c2ccccc2)n1C,0.8,i,0.2,7,3,-0.9,7,-16,0.66,1.2
CC(=O)C(C(C)=O)c1cc(NS(=O)(=O)c2ccccc2)ccc1NS(=O)(=O)c1ccccc1,-3.5,i,1.0,-6,-22,4.7,0,4,0.61,3.7
Cc1ccc2oc(C(=O)N3CCC(O)(c4cccc(C(F)(F)F)c4)CC3)c(C)c2c1,-1.3,i,0.6,0,0,0.9,.,26,0.69,3.0
O=C(N/C(=C/c1cccnc1)C(=O)N1CCOCC1)c1ccco1,-1.0,i,-0.2,18,10,-9.7,1,-9,0.72,3.5
CCC(OC(=O)C(C)N1C(=O)C(=O)c2ccccc21)C(=O)Nc1ccccc1OC (centres undefined),5.5,i,.,-2,-4,11,.,-7,0.67,-0.9
Cc1cc(C)n2nc(C(=O)N3CCN(Cc4ccc5c(c4)OCO5)CC3)nc2n1,0.7,i,0.1,7,4,-0.7,-3,7,0.69,2.5
CC1(C)CC(=O)c2cc(OCC(=O)N3CCCCCC3)ccc2O1,.,.,-0.7,.,.,.,-1,-9,0.7,i
COc1cccc(NC(=S)N(Cc2ccc(C)cc2)Cc2ccccn2)c1,1.3,i,-0.6,-39,-49,-12,-10,78*,0.68,5.1
Oc1cccc(C(O)CNCc2ccc(-c3ccccc3)cc2)c1 (centres undefined),8.8,i,0.0,-27,-50,21,0,28,0.67,3.7
O=C(NCC1CCCCC1)C12CN(Cc3ccccc3)CC1C(c1cccc([N+](=O)[O-])c1)=NO2 (centres undefined),.,.,-0.3,.,.,.,0,23,0.7,5.8
COc1ccc(C(C)=O)cc1COC(=O)c1c(C)noc1C,.,.,-0.2,.,.,.,-6,6,0.72,1.6

# These rows are one share of the data; rates above refer to the full screens.
